Assay outcomes from PubChem BioAssay.
PKD1 kinase inh – blocks activity of human protein kinase D1. 0.056% of 200,000 active. inhibition, %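 (about 10 µM by stock and volumes)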. AID 797. Q15139. PKD1 kinase fluorescence polarization assay;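 active = inhibition of 50% or more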;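 also: controls were vehicle for no effect and a reference inhibitor for full effect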
Target sequence (Q15139 whole entry, looked up): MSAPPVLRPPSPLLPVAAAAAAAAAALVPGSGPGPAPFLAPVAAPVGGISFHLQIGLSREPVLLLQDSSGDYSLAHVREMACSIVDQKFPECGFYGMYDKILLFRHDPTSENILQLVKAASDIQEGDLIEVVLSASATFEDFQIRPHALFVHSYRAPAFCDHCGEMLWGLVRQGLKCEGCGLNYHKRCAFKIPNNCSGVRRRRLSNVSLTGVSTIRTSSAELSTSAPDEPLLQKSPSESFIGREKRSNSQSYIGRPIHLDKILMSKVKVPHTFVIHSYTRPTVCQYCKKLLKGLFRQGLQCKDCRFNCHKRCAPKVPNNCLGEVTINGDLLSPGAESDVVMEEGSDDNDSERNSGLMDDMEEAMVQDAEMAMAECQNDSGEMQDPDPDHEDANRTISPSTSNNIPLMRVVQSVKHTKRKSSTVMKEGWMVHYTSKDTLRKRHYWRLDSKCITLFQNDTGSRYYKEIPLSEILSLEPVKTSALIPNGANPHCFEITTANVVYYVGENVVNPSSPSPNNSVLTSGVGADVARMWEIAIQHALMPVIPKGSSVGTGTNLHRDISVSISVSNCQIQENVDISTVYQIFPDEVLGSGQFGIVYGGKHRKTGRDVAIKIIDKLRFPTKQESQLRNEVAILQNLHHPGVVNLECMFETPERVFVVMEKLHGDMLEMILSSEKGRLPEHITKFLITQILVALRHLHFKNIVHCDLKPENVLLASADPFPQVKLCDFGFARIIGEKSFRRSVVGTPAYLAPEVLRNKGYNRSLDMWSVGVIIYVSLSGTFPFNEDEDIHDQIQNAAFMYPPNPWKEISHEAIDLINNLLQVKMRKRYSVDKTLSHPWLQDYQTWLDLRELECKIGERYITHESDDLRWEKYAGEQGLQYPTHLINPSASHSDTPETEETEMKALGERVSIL
INS promoter inh – TRM-6 insulin promoter activity inhibition; inhibition, % at 2 µM; 0.9% of 130,000 active; TRM-6 cells (human fetal islet line), insulin promoter-eGFP reporter, imaging; reporter expression induced with tamoxifen; AID 1273;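 active = inhibition above the mean plus 3 SD, with well images judged a real hit on visual review, cut at about 60% in these data, passing the limit was not always enough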
RGS16-Gao – modulates binding between human RGS16 and Galphao; bead-based flow cytometry RGS16-Galphao binding, fluorescence; actives lie on both sides; binding response (% of control), % at 10 µM; 0.38% of 220,000 active;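 active = below 25% or above 175%, edge rows of some plates excepted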;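 also: Galphao activated by GDP with aluminum fluoride before binding; 100% = wells without compound and 0% = beads without RGS; some results beyond the cut were filed as inactive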
HSV augment – HSV replication enhancement. AID 1956. HSV replication augmentation in cells, fold increase. maximum fold increase. 0.005% of 220,000 active;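 active = peak rise of 1.5-fold or more in the series; tested in PC3 cells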;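 also: first round at 10 µM; read as green reporter fluorescence; hits show the peak of a series up to 25 µM; 1 = signal of infected wells without compound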
GALR2 agonist – activates the human galanin receptor 2 | 0.48% of 140,000 active | O43603 | activation, %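 (tested at 5 µM)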 | GALR2-expressing cells, agonist activation read-out | AID 803;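 active = above mean plus 3 SD of all compounds, about 5% in these data, not always enough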;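 also: 0% = vehicle buffer wells and 100% = reference agonist at full effect; tested in CHO reporter cells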
INS promoter inh cell count – recorded beside INS promoter inh, whose call it bears; normalized cell count, %; measured here: cell count, toxicity; reference of the scale not given here;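 cells exposed to compound for 48 h; stained nuclei by imaging scaled within each plate; lower means fewer cells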
HSV augment primary fold – also measured in HSV augment; calls as there; fold increase; compound at 10 µM; measured here: primary screen fold increase 10 uM; tested in PC3 cells;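 GFP signal in the first replicate; 1 = infected wells without compound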
The depositor's hits bear a star; i = inactive; · = no result given; [ ] = another dose, or the depositor's remark. Outcome played no part in choosing rows (roughly 1.3% active in at least one column).

SMILES | PKD1 kinase inh | INS promoter inh | INS promoter inh cell count | RGS16-Gao | HSV augment | HSV augment primary fold | GALR2 agonist
O=C(O)c1ccc(-c2nc3scc(-c4ccccc4)c3c(=O)[nH]2)cc1 | · | · | · | 106 | i | 1 | ·
COc1ccc(-c2cc(C(F)(F)F)nc(NC3CCCC3)n2)cc1OC | 14 | · | · | 102 | i | 0.94 | -0.3
CCOC(=O)CC1C(=O)NCCN1C(=O)c1cccc(C(F)(F)F)c1 (centres undefined) | 6 | -3 | 48 | 101 | i | 0.82 | -0.6
Cc1cnc(NC(=O)c2ccc3c(c2)C(=O)N(Cc2ccco2)C3=O)s1 | -5 | -5 | 167 | 100 | i | 0.84 | -0.4
NC(=O)CSc1nnc(-c2ccc(S(=O)(=O)N3CCCCC3)cc2)n1-c1ccccc1 | 4 | 25 | 132 | 335*[activator] | i | 1 | -0.9
CCOc1ccc2[nH]c(=O)c(CN(CCO)C(=O)c3ccc(F)cc3)cc2c1 | 3 | 18 | 84 | 98 | i | 1 | -1.5
C/C(=N\N(Cc1ccccc1)c1ccccc1)c1ccncc1 | 1 | · | · | 100 | i | 0.68 | ·
CC(C)(C)NC(=O)C(c1ccncc1)N(Cc1ccc(F)cc1)C(=O)c1ccc(-c2ccccc2)[nH]1 (centres undefined) | 1 | 29 | 106 | 100 | i | 0.92 | ·
CCN(CC(=O)Nc1c(C(=O)OC)[nH]c2ccc(Cl)cc12)c1ccc2c(c1)OCO2 | 3 | -69 | 127 | 92 | i | 0.8 | 0.0
COC(=O)c1ccccc1NC(=O)NCc1ccccc1 | -1 | · | · | 103 | i | 0.95 | ·
CCOC(=O)c1cc(OCC(=O)NC(C)C(C)C)cc(C(=O)OCC)c1 (centres undefined) | -1 | · | · | -19* | i | 0.92 | -1.6
CC(C(=O)Nc1sc2c(c1C#N)CCCCC2)N1C(=O)c2ccccc2C1=O (centres undefined) | -5 | 41 | 103 | 103 | i | 1.1 | 1.1
Cn1nnnc1SCC1=C(C(=O)O)N2C(=O)[C@@H](NC(=O)[C@H](O)c3ccccc3)[C@H]2SC1 | 1 | 57 | 106 | · | i | 0.81 | -0.7
CCOC(=O)CCCCC(=O)c1[nH]c(=O)[nH]c1CSc1nc(C)cc(=O)[nH]1 | 2 | · | · | 111 | i | 0.99 | -0.4
COC(=O)C(C)Sc1nnc2n(-c3cccc(C)c3)c(=O)c3c4c(sc3n12)CCCC4 (centres undefined) | 10 | -200 | 127 | 105 | i | 0.89 | 1.9
CCNc1nc(NC(C)(C)C)nc(SCC(N)=O)n1 | -7 | 5 | 99 | 95 | i | 0.92 | ·
CSCCC(N=C(NS(=O)(=O)c1ccc(Br)cc1)c1ccccc1)C(=O)O (centres undefined) | 0 | · | · | 84 | i | 1 | ·
Cc1nc2ccc(NC(=S)NCCCO)cc2nc1C | -9 | 32 | 130 | 100 | i | 0.94 | ·
COC(C(=O)Nc1ccc(C(N)=O)cc1)c1ccccc1 (centres undefined) | 0 | · | · | 110 | i | 0.98 | ·
COC(=O)c1ccc(C(=O)OC)c(NC(=O)CN2CCN(c3ccccc3)CC2)c1 | -11 | · | · | 98 | i | 0.78 | 2.4
COc1ccc(C2C(C(C)=O)=C(C)N=c3s/c(=C\c4ccc5c(c4)OCO5)c(=O)n32)c(OC)c1 (centres undefined) | -5 | -85 | 135 | · | i | 1.3 | -0.8
Cc1c(N(C)C(=O)C23CC4CC(CC(C4)C2)C3)c(=O)n(-c2ccccc2)n1C | 17 | -6 | 81 | 102 | i | 0.9 | -0.6
COc1ccc(C(=O)CSc2nnc3n2CCCN3C(=O)Nc2ccccc2)cc1 | · | · | · | 91 | i | 0.87 | ·
O=C(Nc1ccccn1)c1cccnc1 | -9 | -6 | 101 | 104 | i | 0.93 | 0.4
Cc1cccc(C)c1OCC(=O)Nc1nnc(C2CCCO2)s1 (centres undefined) | -3 | -31 | 149 | 107 | i | 0.91 | -0.2

Continued; it opens with the four that closed the last part.
SMILES | PKD1 kinase inh | INS promoter inh | INS promoter inh cell count | RGS16-Gao | HSV augment | HSV augment primary fold | GALR2 agonist
Cc1c(N(C)C(=O)C23CC4CC(CC(C4)C2)C3)c(=O)n(-c2ccccc2)n1C | 17 | -6 | 81 | 102 | i | 0.9 | -0.6
COc1ccc(C(=O)CSc2nnc3n2CCCN3C(=O)Nc2ccccc2)cc1 | · | · | · | 91 | i | 0.87 | ·
O=C(Nc1ccccn1)c1cccnc1 | -9 | -6 | 101 | 104 | i | 0.93 | 0.4
Cc1cccc(C)c1OCC(=O)Nc1nnc(C2CCCO2)s1 (centres undefined) | -3 | -31 | 149 | 107 | i | 0.91 | -0.2
CC1=NN(c2nc(-c3ccc(Cl)cc3)cs2)C(=O)C1 | -4 | · | · | 102 | i | 1.4 | 1.1
Cc1cc(C)nc(Sc2ncnc3sc4c(c23)CCC4)n1 | -3 | 33 | 120 | 105 | i | 0.9 | -3.2
O=[N+]([O-])c1c(NCc2ccco2)ccc2nonc12 | · | · | · | 97 | i | 1.1 | ·
O=C(Nc1ccccc1Cl)N1CCN(c2ccc3nncn3n2)CC1 | 0 | · | · | 99 | i | 0.97 | 0.1
O=C(CN(Cc1ccco1)C(=O)c1ccc(Cl)cc1)Nc1ccc(Cl)c(Cl)c1 | 4 | 37 | 118 | 104 | i | 0.97 | -0.4
O=C(O)/C(=C/c1ccco1)NC(=O)c1ccccc1 | -4 | 7 | 131 | 99 | i | 1.1 | 0.1
Cc1cc(NC(=O)CCCOc2ccc(Cl)cc2Cl)no1 | -3 | 15 | 139 | i | i | 0.83 | -1.3
COc1ccc2c(c1OC)C(=O)OC2Nc1ccccn1 (centres undefined) | -2 | 8 | 107 | 97 | i | 1 | 0.8
CC(C)(C)c1ccc(C(=O)N2CCCN(C(=O)c3ccc(C(C)(C)C)cc3)CC2)cc1 | 5 | -5 | 105 | 104 | i | 0.94 | -0.6
CCN(C(=O)Nc1ccccc1)c1ccccc1 | -1 | -29 | 112 | 109 | i | 0.95 | -0.5
O=C1C2CCCN2C(=O)N1CCN1CCN(c2ccccc2)CC1 (centres undefined) | -1 | 0 | 100 | 110 | i | 0.99 | -1.1
O=C(OC(C(=O)NC1CCCC1)c1ccccc1F)c1ccco1 (centres undefined) | -1 | 3 | 90 | 106 | i | 1.1 | -2.2
O=C(/C=C/c1ccccc1)Nc1ccc2c(c1)C(=O)NC2=O | -3 | -47 | 131 | 100 | i | 1 | ·
Cc1[nH]c2ccccc2c1-c1csc(NC(=O)CSCC(=O)O)n1 | · | · | · | 98 | i | 1.1 | ·
COC(=O)c1sccc1NC(=O)c1ccc(Br)s1 | 4 | 43 | 88 | 91 | i | 1.1 | -0.9
O=C(NC(=S)NCc1ccccc1)c1ccccc1[N+](=O)[O-] | -6 | 52 | 100 | 96 | i | 1 | ·
CC(C)C(c1nnnn1Cc1ccccc1)N1CCN(Cc2ccco2)CC1 (centres undefined) | 7 | · | · | 108 | i | 0.96 | -1.4
Cc1ccccc1-c1nc(CN2CCC(C(=O)O)CC2)c(C)o1 | -6 | · | · | 101 | i | 0.95 | -0.3
O=C(C(=O)N1CCN(c2cccc(Cl)c2)CC1)c1c[nH]c2ccccc12 | -3 | 12 | 74 | 101 | i | 0.91 | ·
CC(C)=C1C2C=CC1C(C(=O)Nc1cccc(C)c1)C2C(=O)O (centres undefined) | -2 | · | · | 92 | i | 0.92 | -3.6
Cc1cccc(C(=O)Nc2nc(C)c(C(=O)Nc3ccc4c(c3)CCC4)s2)c1 | -1 | 44 | 59 | 102 | i | 0.77 | 0.0
CC(C)(C)N/C=C(\C#N)S(=O)(=O)c1ccc(Br)cc1 | · | · | · | 100 | i | 1 | ·
Cc1ccc(C(=O)N/C(=C\c2ccco2)C(=O)NC2CCS(=O)(=O)C2)cc1 (centres undefined) | · | · | · | 91 | i | 1.1 | ·
CCN(C(=O)CSc1ncnc2sc(C)c(C)c12)C1CCS(=O)(=O)C1 (centres undefined) | -10 | 0 | 75 | 106 | i | 0.84 | ·
CCOc1ccccc1Nc1nc(-c2sc(NC(=O)c3ccco3)nc2C)cs1 | 1 | -24 | 119 | 95 | i | 1.1 | -0.7
Additional compounds follow:
SMILES | PKD1 kinase inh | INS promoter inh | INS promoter inh cell count | RGS16-Gao | HSV augment | HSV augment primary fold | GALR2 agonist
CC(C)(C)[C@H]1C=C(C(=O)NC2CC2)O[C@@H](OCCCCO)C1 | -2 | · | · | 98 | i | 0.9 | ·
CNC(=O)c1ccccc1-c1cn(C)c2ccccc2c1=O | -3 | 17 | 67 | 50 | i | 0.93 | ·
Cc1cccc2sc(N(CCCN(C)C)C(=O)c3cc4ccccc4oc3=O)nc12 | -10 | · | · | 103 | i | 1.1 | -0.3
COCCNC(=O)c1cn(C)c2ccccc2c1=O | -3 | 0 | 99 | 106 | · | · | ·
O=C(NCC1CCCO1)c1onc(CSc2cccc(Cl)c2)c1C(=O)O (centres undefined) | -25 | 35 | 121 | 82 | i | 0.78 | -2.8
Cc1nc2ccc(S(=O)(=O)NCC(=O)N3CCc4ccccc43)cc2s1 | -2 | 18 | 127 | 104 | i | 0.92 | -0.2
NNC(=O)c1nc[nH]c1C(=O)Nc1ccccc1[N+](=O)[O-] | -6 | 15 | 77 | 104 | · | · | ·
O=C(Nc1cccc(Cl)c1Cl)C1CC(=O)N(c2ccc(Br)cc2)C1 (centres undefined) | 10 | -106 | 89 | 102 | i | 0.88 | -0.2
O=C(CNS(=O)(=O)c1ccccc1)N1CCN(c2ccccc2)CC1 | 4 | 0 | 151 | 108 | i | 0.73 | -1.4
Cc1nnc(NC(=O)CCN2C(=O)/C(=C\c3ccccc3)SC2=S)s1 | · | · | · | 104 | i | 1.1 | ·
O=c1c(-c2ccccc2)c(O)nc(SCCN2CCOCC2)n1-c1ccccc1 | -2 | 0 | 97 | 105 | i | 0.97 | -0.3
O=[N+]([O-])c1cccnc1N1CCC(c2cc(-c3ccc(Cl)cc3Cl)n[nH]2)CC1 | -8 | -9 | 139 | 101 | i | 0.8 | 1.1
N#Cc1c2n(c(=O)[nH]c1=O)CCCCC2 | -12 | 18 | 101 | 93 | i | 1 | 1.0
COC(=O)c1sc(NC(=O)COc2ccccc2C)nc1C | -9 | 5 | 64 | 121 | i | 0.7 | ·
O=S(=O)(c1cccc(C(F)(F)F)c1)N1CCN(c2nnnn2-c2ccccc2)CC1 | 0 | · | · | 104 | i | 1.1 | -1.9
Cn1c(=NC(=O)c2ccco2)sc2ccccc21 | 8 | -14 | 105 | 108 | i | 0.98 | ·
C#CCCOC(=O)N1C2=NC(C(=O)OC)=C(C(=O)OC)[C@@H]3N(CC=C)c4ccccc4[C@]23C[C@H]1C(=O)OC | · | · | · | 108 | i | 0.8 | ·
COc1cccc2cc(C(=O)CC3(O)C(=O)N(Cc4ccccc4)c4ccccc43)c(=O)oc12 (centres undefined) | 3 | -34 | 63 | 104 | i | 0.83 | -2.2
O=c1[nH]c2ccccc2[nH]c1=O | · | · | · | 110 | i | 0.98 | ·
CCOC(=O)c1nn(-c2cccc(OC)c2)c(-c2ccccc2)c1C(=O)c1ccccc1 | -12 | 20 | 119 | 100 | i | 1 | -1.8
CCOC(=O)C1=C(c2ccccc2)NC(N)=NC1c1ccc(OCc2ccc(C(=O)OC)cc2)cc1 (centres undefined) | · | · | · | 103 | i | 0.59 | ·
O=S(=O)(c1ccc2nc(COc3ccc(Cl)cc3Cl)[nH]c2c1)N1CCOCC1 | -2 | · | · | 99 | i | 1 | -0.6
O=C(/C=C/Sc1ccccc1)c1ccccc1 | 3 | -32 | 83 | 117 | i | 0.59 | -2.6
O=C1CCSc2ccc(Cl)cc2N1Cc1ccc(Cl)cc1 | -2 | -4 | 96 | 99 | i | 1.1 | -2.7
O=C(Cn1ncc2c1-c1ccccc1OC2)N1CCN(Cc2ccc3c(c2)OCO3)CC1 | -2 | · | · | 102 | i | 1 | -1.8
CCCCNC(=O)C1CCC(CNS(=O)(=O)c2ccc(NC(C)=O)cc2)CC1 (centres undefined) | -8 | 29 | 97 | 69 | i | 0.92 | -1.6
COC(=O)c1cccc(NC(=O)CSc2nc(=O)cc(N)n2-c2ccccc2)c1 | -9 | -22 | 101 | 95 | i | 0.8 | -0.7

Three entries picked at random from those above, as already listed:
SMILES | PKD1 kinase inh | INS promoter inh | INS promoter inh cell count | RGS16-Gao | HSV augment | HSV augment primary fold | GALR2 agonist
Cc1cccc2sc(N(CCCN(C)C)C(=O)c3cc4ccccc4oc3=O)nc12 | -10 | · | · | 103 | i | 1.1 | -0.3
CCOc1ccccc1Nc1nc(-c2sc(NC(=O)c3ccco3)nc2C)cs1 | 1 | -24 | 119 | 95 | i | 1.1 | -0.7
COc1cccc2cc(C(=O)CC3(O)C(=O)N(Cc4ccccc4)c4ccccc43)c(=O)oc12 (centres undefined) | 3 | -34 | 63 | 104 | i | 0.83 | -2.2
